High-throughput results: PubChem BioAssay, ICCB-Longwood Screening Facility, Harvard Medical School
Ba CapD inh = Bacillus anthracis CapD inhibitors, primary screen, biochemical, fluorescence intensity; z-score (no concentration beside the values); actives 0.23% (n = 140,000); CapD gamma-glutamyltranspeptidase (Bacillus anthracis Ames Ancestor); purified CapD enzyme, fluorescence intensity read-out; stronger effect = lower value; some hits fall short of the stated cut;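 active means z-score under -4 in either of two replicates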;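 further: stock transfer was 100 nL into about 40 µL; score is relative to mean and spread of the plate; one replicate is shown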
AID504770 = growth inhibition of E. coli YBA685, primary screen, V. cholerae RctB inhibitors | z-score (test concentration not listed) | E. coli YBA685 rctB-dependent plasmid, OD600 growth, 3 h; stronger effect = lower value | actives 0.27% (n = 130,000);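 active means z-score under -2 on both plates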;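 further: wells of about 30 µL received 100 nL stock; score is relative to mean and SD of the test wells; the first replicate is given; strong numbers were not always called active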
The depositor's hits bear a star; / = not tested or not shown; & = joins results of further samples. Rows are unselected. About 0.39% of those tested had a hit in this group.

The opening 6 records as a preview:
Order of results – Ba CapD inh | AID504770
- Cc1nnc(SCC(=O)Nc2ccc(Cl)cc2Cl)n1C
  -0.9 | -0.15
- O=C(Cn1nc(C(F)(F)F)c2c1CCC2)NC1CCCC1
  / | -0.5
- COC(=O)c1sc2ccccc2c1-n1cccc1C(=O)C(=O)N1CCOCC1
  -0.44 | /
- C=C(C)CN1C(=O)C2(OCCO2)c2ccccc21
  -0.2 | /
- O=C(CN1CCCCC1)N(c1ccccn1)c1ccccn1
  / | 2
- CC1SCC(NS(=O)(=O)c2cc(Cl)sc2Cl)CS1 (stereo unspecified)
  0.055 | 0.95

All compounds of this part, from the first entry:
Order of results – Ba CapD inh | AID504770
- Cc1nnc(SCC(=O)Nc2ccc(Cl)cc2Cl)n1C
  -0.9 | -0.15
- O=C(Cn1nc(C(F)(F)F)c2c1CCC2)NC1CCCC1
  / | -0.5
- COC(=O)c1sc2ccccc2c1-n1cccc1C(=O)C(=O)N1CCOCC1
  -0.44 | /
- C=C(C)CN1C(=O)C2(OCCO2)c2ccccc21
  -0.2 | /
- O=C(CN1CCCCC1)N(c1ccccn1)c1ccccn1
  / | 2
- CC1SCC(NS(=O)(=O)c2cc(Cl)sc2Cl)CS1 (stereo unspecified)
  0.055 | 0.95
- O=C(Nc1noc2ccccc12)c1ccccc1
  -0.73 | -0.95
- Cc1cccc(C(=O)OCCSc2nc(C)c3cc(C)c(C)cc3n2)c1
  -0.12 | -0.1
- C=CCOc1cccc(CNc2cccc(C(=O)O)c2)c1
  70 | -0.9
- FC(F)(F)c1cccnc1N1CCN(Cc2ccc[nH]2)CC1
  -0.33 | -0.75
- CN=CC1=C(O)c2ccccc2C1=O
  -1.1 | -0.05
- Cc1ccc(C2=CC(c3ccc(F)cc3)n3c(nc4ccccc43)N2)cc1 (stereo unspecified)
  -0.79 | /
- CCC(=O)NC(C)C(c1cccs1)N1CCN(c2ccccc2)CC1 (stereo unspecified)
  0.36 | -0.15
- CC(C)C(=O)Nc1ccc2oc(-c3cncc(Br)c3)nc2c1
  / | 0.5
- CCCCCCCCCCCCCCCCOc1ccc(C(=O)Oc2ccc(OC)cc2)cc1
  0.085 | /
- COc1cc(CNC(=O)c2ccc(N(C)C)cc2)cc(OC)c1OC
  / | 0.4
- CCOC(=O)c1c(C)n(O)c2ccc3nonc3c12
  -1.5 | -0.2
- c1ccc(SCc2nnc3n2CCCCC3)cc1
  -0.01 | -0.9
- COc1ccc2[nH]c3c(=O)n(CCCN(C)C4CCCCC4)cnc3c2c1
  41 | 0.2
- CNC(=O)c1c(C)nc(SCC(=O)N2CCCC2=O)c(C#N)c1-c1ccco1
  / | -0.25
- O=C(O)/C=C/c1cnn(Cc2ccccc2)c1
  / | 0.55
- CCN(C(=O)c1ccc(Cl)cc1)c1ccccc1C
  0.37 | 0.75
- O=c1[nH]cnc2cc(-c3ccccc3)sc12
  0.36 | 0.2
- O=C(Cc1ccc(Cl)cc1)N1CCN(c2ccccc2)CC1
  -0.1 | 1.4
- CCOC(=O)C1(C)/C(=N\Nc2ccc([N+](=O)[O-])cc2)C(=O)C(=O)N1c1ccccc1 (stereo unspecified)
  -0.48 | /
- O=c1c2c(nc3nc[nH]n13)CCC2
  0.36 | -0.45
- Nc1cc(C(F)(F)F)ccc1Oc1ccc(C2CCCCC2)cc1
  0.06 | -0.3
- COc1ccc(N(/C=C2\Sc3ccccc3C2=O)C(=O)c2ccco2)cc1
  -0.53 | /
- O=C(C1=C(O)C(=O)N(Cc2ccccc2)C1c1cccnc1)c1ccco1 (stereo unspecified)
  1 | -0.15
- CCc1cc(-c2[nH]ncc2-c2ccc(Br)cc2)c(O)cc1O
  0.76 | -0.7
- O=c1c(Cl)c(NCc2ccco2)cnn1Cc1ccccc1
  / | -0.25
- CCOC(=O)C1=C(C)NC2=C(C(=O)C(C(=O)OCC)C(c3ccccc3OC)C2)C1c1ccc(F)cc1 (stereo unspecified)
  11 | /
- COc1ccccc1NC(=O)COc1ccc2oc3c(c2c1)CCCC3
  2.6 | -0.1
- COC(=O)c1cc(CN2c3cccc4cccc(c34)S2(=O)=O)oc1C
  / | -1
- COc1ncnc(OC)c1C
  0.34 | -0.65
- O=C(CCCN1C(=O)c2ccccc2C1=O)NCc1ccco1
  -0.19 | 0.75
- COc1cc2c(cc1NC(=O)COCC(=O)O)oc1ccccc12
  0.52 | 0.75
- COc1ccc(COCC(O)CNC2CCC(C)CC2)cc1 (stereo unspecified)
  / | -2.1
- CC(Sc1ccc2nnc(-c3cccnc3)n2n1)C(=O)O (stereo unspecified)
  / | -0.15
- COc1ccccc1C1C2=C(NCCN=C2c2ccccc2)C(=O)N1c1ccccc1 (stereo unspecified)
  -0.48 | /
- N#CCSc1cccc2cccnc12
  / | -1
- COC(OC)C12c3ccccc3C(c3ccccc31)C1C(=O)N(c3ccc(I)cc3)C(=O)C12 (stereo unspecified)
  -0.28 | /
- Nc1nonc1C(=O)N1CCCC1
  / | 1.8
- CCOC(=O)N1CCN(c2ncnc3c2c(-c2ccccc2)cn3-c2ccc(OC)cc2)CC1
  -0.08 | /
- COc1ccccc1NCc1ccccc1Oc1ccc(S(=O)(=O)N2CCCC2)cn1
  / | -0.35
- O=C1CCCC2=C1C(c1ccccc1F)Nc1ccc3ncccc3c12 (stereo unspecified)
  -0.12 | /
- CCCOc1ccc(C2Nc3cccc4cccc(c34)N2)cc1
  31 | /
- COc1ccc(N2CC(NC(=O)N3C(C)CCCC3C)CC2=O)cc1 (stereo unspecified)
  / | 0.4
- O=C(OCC1CC(c2ccccc2)=NO1)c1ccco1 (stereo unspecified)
  -0.39 | -0.3
- COc1cc(C)c(N)cc1OC
  0.62 | 0.15
- c1ccc(CCCc2nn3c(-c4cccs4)nnc3s2)cc1
  / | -1.2
- CC1(C)Cc2cccc(OCC(=O)NC3CC3)c2O1
  / | -0.45
- CCN1CCN(C(=O)CCSc2ccc(C)cc2)CC1
  -0.47 | 0.8
- Nc1nc(N)nc(CN2C(=O)NC(c3ccccc3)(c3ccccc3)C2=O)n1
  / | -1.1
- C(=N\NC1=NCCCCC1)/c1ccc2c(c1)OCO2
  / | -0.6
- O=C(COc1ccc(Cl)cc1)Nc1nonc1NC(=O)COc1ccc(Cl)cc1
  0.07 | 0.5
- Cc1ccc(S(=O)(=O)Nc2nc3c(s2)C(=O)CC(C)(C)C3)cc1
  / | -0.3
- O=C(Nc1nc2ccccc2s1)C1CCCO1 (stereo unspecified)
  / | -0.3
- CC1=NC(=O)C2C(=O)O/C(=C/c3ccc4c(c3)OCO4)C2=C1 (stereo unspecified)
  3.6 | -1.2
- COc1ccc(C2C(=O)c3ccccc3C2=O)c(OC)c1
  -0.41 | 0.4

Next section
Order of results – Ba CapD inh | AID504770
- O=C(COc1ccc(Br)cc1)NC1CC1
  -0.19 | -1.1
- Cc1cc(I)c(C)cc1I
  0.17 | /
- CCn1c2ccccc2c2cc(CN3CCN(C(=O)c4ccc(Br)o4)CC3)ccc21
  13 | /
- Nc1nc(-c2ccc(Cl)cc2)c(N=Nc2ccc(S(=O)(=O)N3CCOCC3)cc2)s1
  / | -0.3
- Nc1c(C(=O)C2CC2)oc2ccccc12
  / | -0.95
- S=C(NC1CCCCC1)N1CCn2c(nc3ccccc32)C1
  0.37 | -0.95
- CC(C)CNc1ncnc2onc(-c3cccc(Cl)c3)c12
  0.42 | 0.95
- Cc1cccc(-n2nnnc2C2(N(C)C)CCCCC2)c1
  -0.37 | /
- COc1cc(S(=O)(=O)N2CCN=C2c2ccccc2)ccc1F
  0.13 | -1.1
- CC1=CC(=C2C(=O)NC(=S)NC2=O)C=C(C(F)(F)F)O1
  -0.85 | -1.4
- CS(=O)(=O)c1nc2ccccc2n1Cc1ccccc1F
  0.23 | 0
- CCN(CC)S(=O)(=O)c1cccc(-c2nnc(SCC(=O)Nc3cc(C)ccc3C)o2)c1
  / | 0.7
- COc1ccc(N=C2SC(C(=O)N3CCN(c4ccc([N+](=O)[O-])cc4)CC3)CC(=O)N2C)cc1 (stereo unspecified)
  -1.8 | /
- O=C(N/N=C/c1csc([N+](=O)[O-])c1)c1cc2ccccc2s1
  0.48 | /
- Cc1nc2[nH]c(=S)[nH]c2cc1Br
  1.1 | 1.3
- CCOC(=O)c1cnc2c(c(C)nn2C)c1Sc1nnc(SC)s1
  0.28 | 0.85
- CCc1sc(C(=O)O)cc1C
  / | 0.85
- CN(C(=O)c1ccc2c(=O)n3c(nc2c1)CCCCC3)C1CCCCC1
  -0.68 | /
- CC(=O)NC(C)Cc1cn(Cc2ccccc2)c2ccccc12 (stereo unspecified)
  -0.27 | 0
- O=C(Cc1ccc(-n2c(=O)c3sccc3n(Cc3ccccc3F)c2=O)cc1)NCc1ccco1
  0.21 | -0.25
- COc1ccc(C2NC(=O)c3c(sc4c3CCCC4)N2)c(OC)c1 (stereo unspecified)
  -0.35 | /
- COc1cccc(C(=O)Nc2nnc(SCC(=O)Nc3ccccc3C(F)(F)F)s2)c1OC
  20 | /
- COc1ccc2c(c1)CCCN2Cn1nc(COc2ccccc2)n(C)c1=S
  0.95 | -0.6
- Cc1nc2c([nH]c3ccc(Br)cc32)s1
  0.28 | 0.2
- COc1cc(OC)c(OC)cc1CN(C)C1CCN(C)CC1
  0.3 | -0.25
- CC1SC(C)C(=O)N(CC(=O)NCCc2ccccc2)C1=O (stereo unspecified)
  -0.43 | -1.1
- COc1ccccc1NC(=O)C1OCCc2ccccc21 (stereo unspecified)
  -2.2 | -0.3
- Cc1cccc(N2CCN(C(=O)c3cccc(N4C(=O)C5CC=CC(C)C5C4=O)c3)CC2)c1C (stereo unspecified)
  -0.7 | /
- COc1ccccc1NS(=O)(=O)c1ccc(NC(=O)c2nc3ncccn3n2)cc1
  -0.15 | 0.4
- CCc1cc(Br)ccc1S(=O)(=O)NC1CCN(Cc2ccnc3ccccc23)C1 (stereo unspecified)
  1.3 | /
- O=c1cc(O)c2sc(SCCN3CCOCC3)nc2[nH]1
  / | -0.55
- O=C(CSC(=O)c1ccccc1)Nc1ccc(C(F)(F)F)cc1
  -1 | -0.85
- Cc1ccc2cc(CN(CCO)C(=O)NCc3ccccc3)c(=O)[nH]c2c1
  / | 0.05
- CN(C)S(=O)(=O)c1ccc(SCC(=O)N2CCNC2=O)nc1
  / | 0.2
- Cn1c(=O)c(=O)n(C)c2cc(S(=O)(=O)CCC(=O)N3CCOCC3)ccc21
  0.48 | 1.4
- O=C(COC(=O)C1CCCCC1)Nc1cccc(F)c1
  0.23 | 0.65
- Brc1ccc(-c2nc3ccccn3c2Sc2ccccc2)cc1
  30 | /
- COCCNC(=O)c1ccc2c(=O)n(Cc3ccco3)c(SCC(=O)Nc3ccc(OC)cc3OC)nc2c1
  0.33 | /
- O=C(NCCCN1CCCC1=O)c1ccc2c(=O)n(Cc3cccc(Br)c3)c(=S)[nH]c2c1
  0.48 | /
- COc1ccc(OC)c(NC(=O)c2cc3cccc(OC)c3oc2=Nc2ccc(C(=O)O)cc2)c1
  -1.3 | /
- CCN(CC(=O)NCc1ccc(F)cc1)C(=O)c1ccc(C)o1
  / | 0.75
- CC1CCC2(CC1)NC(=S)c1c(sc3c1CCC(C)C3)N2 (stereo unspecified)
  0.47 | /
- C/C(=N\NC(=O)c1ccoc1C)c1cccc2ccccc12
  0.04 | -0.1
- COc1cccc(N2CCN(c3ncnc4c3cnn4-c3ccccc3)CC2)c1
  0.12 | /
- CCCc1cnc(N2CCSCC2)nc1
  3.7 | 0.05
- Cc1c(Cl)c(-c2n[nH]c(=S)n2Cc2ccco2)nn1C
  -0.02 | -0.25
- CSc1scc2c1-c1nc(SCC(=O)C(C)(C)C)ncc1CC2
  30 | 0.95
- CCn1cnc2c(cnn2-c2ccc(Cl)cc2)c1=O
  -0.55 | -0.35
- C=CCn1c(=O)[nH]c(=O)c2c(N)c(C(=O)c3ccc(OC)cc3)sc21
  / | -0.35
- O=C(NC1CC1)c1cc2c(ccc3ccccc32)oc1=O
  3.9 | -0.8
- Cc1nc2nc(-c3ccccc3)cn2nc1C
  2&8.9 | -0.15&-1.6
- c1ccc(-c2ccc(-c3csc(-c4cccnc4)n3)cc2)cc1
  5.1 | /
- CCN(CC)CCCNS(=O)(=O)c1ccccc1OC(F)(F)F
  0.33 | /
- Cc1ccc(CN2C(=O)CSc3ccc(NC(=O)NC4CCC(C)CC4)cc32)cc1 (stereo unspecified)
  0.02 | 0.3
- Cc1ccc(S(=O)(=O)N2CCCN(c3nc(C)cc(C)c3C#N)CC2)cc1
  77 | /
- Cn1[nH]c(Nc2ccccc2Cl)c(N=Nc2ccccc2)c1=O
  0.22 | -1.4
- FC(F)(F)c1cnc(N2CCN(CCOCc3ccc(Cl)cc3)CC2)c(Cl)c1
  0.035 | -0.25
- CCOC(=O)C1CCN(S(=O)(=O)c2cccc3nsnc23)CC1
  -1 | /
- Cc1sc2nc(-c3cccc([N+](=O)[O-])c3)oc(=O)c2c1C
  0.4 | /
- CCCC(C)C(=O)Nc1nc2ccccc2s1 (stereo unspecified)
  / | -0.25

2 records picked at random from the list so far, as already listed:
Order of results – Ba CapD inh | AID504770
- Cc1ccc(CN2C(=O)CSc3ccc(NC(=O)NC4CCC(C)CC4)cc32)cc1 (stereo unspecified)
  0.02 | 0.3
- CCN(CC(=O)NCc1ccc(F)cc1)C(=O)c1ccc(C)o1
  / | 0.75

Further compounds.
Order of results – Ba CapD inh | AID504770
- CCn1c(O)c(C#N)c(C)cc1=O
  4.3 | /
- CC(C)(C)c1ccc(NC(=O)NC2Cc3ccccc3C2)cc1
  1.1 | /
- O=C(Nc1ccc(F)cc1)c1cc(S(=O)(=O)NCCc2ccc(Cl)cc2)ccc1F
  -1 | /
- CC(C)Oc1ccc(CNCCC2(c3ccccc3)CCOC(C)(C)C2)cc1 (stereo unspecified)
  0.21 | /
- N#C/C(=C\Nc1ccccn1)C(=O)C1CC1
  -3.3 | 0.85
- CC1CCN(C(=O)c2cc3ccccc3o2)CC1
  -0.48 | 2.1
- Cc1ccc(NC(=O)/C=C/c2ccc(-c3ccccc3)o2)cc1
  -0.12 | 2.1
